# Compound activity deposited in PubChem BioAssay by National Center for Advancing Translational Sciences (NCATS).
# TRPML1 inh: human mucolipin-1 channel inhibition | TRPML1-inducible cells, Ca2+ dye fluorescence, FDSS; stronger effect = lower value; inhibition of EC80 agonist-evoked calcium signal | activity change, negative = inhibition, % (concentration not given with the values) | 390,000 tested, 0.02% active | AID 624415; in the data active means activity change below about -50%; inconclusive means about -30% to -50%; inactive means above about -30%;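 further: stimulus is agonist 54-4 at its EC80 concentration; on the % scale 0 is the no-effect control and ±100 the full control effect; compound concentration not given in the record; the text of the record puts the active cut at -80%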
#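 TRPML1-DL cells, Tet-induced overnight (~16 h, 37 °C) at 1,500 cells/well, were loaded with Ca8 no-wash dye plus quencher for 45-90 min at room temperature. Compounds were pinned during FDSS kinetic reading; agonist 54-4 at EC80 (4 uM final) then added.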
# TRPML1 ag: human mucolipin-1 channel agonism; TRPML1-expressing cells, Ca2+ dye fluorescence, FDSS; host cell line not named in the record; reference of the full effect not given here; activation, % (test concentration not listed); 410,000 tested, 0.12% active; AID 624414; in the data active = activation above about 50%; inconclusive = about 30% to 50%; inactive = below about 30%; further: 0% is about no effect; the text of the record puts the active cut at 80%
#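 In this qHTS format, compounds were pin-transferred onto Ca8-dye-loaded TRPML1-DL cells induced with Tet overnight, and intracellular Ca2+ fluorescence was recorded kinetically for 110 s after a 10 s baseline. A subsequent 4uM final 54-4 (EC80) addition followed by a second 110 s read served as the antagonist phase.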
# D2 agonist: agonists of human D2 dopamine receptor (beta-arrestin); 360,000 tested, 0.084% active; AID 624465; DiscoveRx PathHunter D2 beta-arrestin, luminescence, 90 min; 100% = 57 uM dopamine signal; activation, % (no concentration beside the values); P14416; in the data active = activation above about 40%; inconclusive = about 15% to 40%; inactive = below about 15%; further: compound concentration not given in the record; the text of the record calls up to 30% inactive
#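 Agonist mode: compounds alone added to overnight-plated D2 PathHunter cells for 90 min at 37 C, with 57 uM final dopamine (EC100) defining full response. Beta-arrestin recruitment detected by chemiluminescent reagent, read after 1 h at ambient temperature.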
# Six1-Eya2 blk: blocks human Six1 binding to Eya2 | 360,000 tested, 0.56% active | AlphaScreen GST-Six1/His-Eya2 binding, biochemical; stronger effect = lower value; control for the full effect not named in the record | AID 651725 | activity change, % (concentration not given with the values); in the data active = activity change below about -65%; inconclusive = about -30% to -65%; inactive = above about -30%; further: on the % scale 0 is the no-effect control and ±100 the full control effect
# Target sequence (O00167 whole entry, looked up): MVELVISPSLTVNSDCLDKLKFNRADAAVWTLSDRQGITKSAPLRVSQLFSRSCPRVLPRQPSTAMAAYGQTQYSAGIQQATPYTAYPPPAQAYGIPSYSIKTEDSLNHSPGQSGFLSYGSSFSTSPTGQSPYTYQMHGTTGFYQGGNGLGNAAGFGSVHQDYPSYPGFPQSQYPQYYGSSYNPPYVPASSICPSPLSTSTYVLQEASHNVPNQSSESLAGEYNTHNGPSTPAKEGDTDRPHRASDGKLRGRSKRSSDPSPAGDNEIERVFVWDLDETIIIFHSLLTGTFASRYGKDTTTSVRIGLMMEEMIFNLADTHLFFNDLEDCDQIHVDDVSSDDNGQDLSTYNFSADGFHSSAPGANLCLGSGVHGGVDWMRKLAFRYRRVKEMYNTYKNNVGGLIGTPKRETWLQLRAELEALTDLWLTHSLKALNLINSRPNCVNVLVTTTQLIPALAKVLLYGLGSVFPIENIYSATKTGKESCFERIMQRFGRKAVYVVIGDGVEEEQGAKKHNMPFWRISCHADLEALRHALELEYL
# Target sequence (Q15475 whole entry, looked up): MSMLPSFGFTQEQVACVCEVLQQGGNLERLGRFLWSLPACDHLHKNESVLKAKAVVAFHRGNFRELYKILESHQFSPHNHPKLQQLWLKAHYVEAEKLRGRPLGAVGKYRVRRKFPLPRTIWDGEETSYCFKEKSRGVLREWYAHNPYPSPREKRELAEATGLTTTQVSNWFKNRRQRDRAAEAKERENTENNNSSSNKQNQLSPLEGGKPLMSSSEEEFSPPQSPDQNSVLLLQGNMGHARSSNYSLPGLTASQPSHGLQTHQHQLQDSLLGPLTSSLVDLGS
#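 AlphaScreen luminescence read after one hour at 37 °C in darkness. Pin-transferred compounds met GST-Six1 and His-Eya2 protein (5X stock 250 nM/500 nM) plus glutathione donor and Ni-chelate acceptor beads (5X, 50 ug/mL).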
# D2 PAM: human D2 receptor positive allosteric modulation; P14416; DiscoveRx D2 beta-arrestin cells, luminescence, 90 min; 100% = 57 uM dopamine signal; potentiation, % (test concentration not listed); 360,000 tested, 0.23% active; AID 624464; active = potentiation of 50% or more; inconclusive = 30% to 50%; inactive = 30% or less;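 further: compound concentration not given in the record; tested on top of an EC20 dose of dopamine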
#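 PathHunter beta-arrestin assay in DiscoveRx D2 cells. Compounds were added with an EC20 of dopamine (50 nM final) for 90 min at 37 deg C. Luminescence was read 1 h after detection reagent, with 57 uM dopamine as the EC100 control.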
# PINK1 expr mod: PINK1 expression modulation; Potency, µM (titrated, usually from 76.6 µM), without a hit: top-dose activation (PINK1 increase), usual class: activators; PINK1 immunofluorescence, high-content cytometry, 24 h; 410,000 tested, 0.2% active; AID 624263; active = well fitted activation curve with a large enough effect; inconclusive = small, poorly fitted or top-dose-only effect; inactive = flat fitted curve, though single readings scatter; cell line not stated here;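 further: potency means the concentration at half of the fitted maximal effect; % of control where 0% means no effect; nearly all actives have a fitted effect of over 65% in size; a mitochondrial uncoupler was the plate control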
#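 Cells are seeded, rested 12 hours, then given compound at five concentrations or DMSO for 24 hours. After fixation, blocking and antibody staining, PINK1 amount and mitochondrial localization are scored; CCCP serves as control.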
# Active calls of the source: *; ? = inconclusive; . = no result given; [ ] = another dose, or the depositor's remark.
SMILES,TRPML1 inh,TRPML1 ag,D2 agonist,Six1-Eya2 blk,D2 PAM,PINK1 expr mod
CCC(=O)Nc1ccc2c(c1)ncn2-c1ccc(C)cc1,21,-1.0,-4.3,2,-11,0.7%
Cc1cc(C)c(NC(=O)C2CCN(S(C)(=O)=O)CC2)c(C)c1,-3,-0.6,-4.1,1,0,-1.0%
Cc1ccc(Cn2c(SCC(=O)NCc3ccccc3)nc3ccsc3c2=O)cc1,14,1.1,.,.,.,0.0%
CCOC(=O)CN1C(=O)CC(c2ccccc2)C1=O (configuration not stated),8,-0.2,-4.3,27,-19,0.1%
CCOc1ccccc1Nc1nc(N)nc(CSc2nncn2C)n1,-9,0.3,-0.5,-23,8,3.1%[38.3 µM]
CCOC(=O)c1ccc(NC(=O)c2ccnn2C)cc1,-8,-0.6,-3.6,6,-2,3.1%
Cc1ccc(NC(=O)Cn2c(=O)n(CCCCC(=O)NCc3ccccc3Cl)c(=O)c3ccccc32)cc1,27,0.8,.,.,.,0.2%
CCOc1ccc(C(=O)Nc2nnn(CC)n2)cc1,-3,-0.7,-2.3,4,-4,0.9%
O=c1c(-c2ccc(Cl)cc2)c[nH]n1-c1ccccc1,5,4.3,-6.8,-8,-6,1.2%
COc1ccc(CNC(=O)C(=O)c2cn(CC(=O)N3CCCC3)c3ccccc23)cc1,4,0.5,-3.4,-1,26,2.2%
O=c1c([N+](=O)[O-])c(O)c2cccc3c2n1CCC3,2,0.2,-3.0,-12,0,6.4%
C=C(CCO)C1=CCN(S(=O)C(C)(C)C)[C@H]1CCO (some centres not stated),-3,-0.1,-5.4,6,.,-0.8%
OCC1(Cc2ccccc2F)CCCN(CC2CCCCC2)C1 (configuration not stated),10,-0.7,1.0,1,-25,5.7%
COc1ccc(/C=N/NC(=O)CCN2CCN(c3ccccc3)CC2)c(OC)c1OC,-9,3.4,?,-17,-10,3.2%
COc1ccc(-c2cc(C(=O)Nc3c(C(=O)c4ccc(C)cc4)oc4ccccc34)no2)cc1,-5,1.3,.,.,.,0.8%
CCCn1c(=O)c2ccccc2n2c(SCC(=O)NCc3cccs3)nnc12,-7,1.0,-1.5,-2,5,1.8%
Cc1ccc(C)c(SCC(=O)Nc2cccnc2Cl)c1,31,1.5,-1.9,-1,-2,2.3%
COc1ccccc1NC(=O)NC1CCCCCCC1,-7,3.0,3.0,1,-20,1.9%
O=C(N/N=C/c1ccc(-c2ccc([N+](=O)[O-])cc2)o1)[C@H]1C[C@@H]1c1ccccc1,28,0.2,3.6,-2,9,?
N#Cc1c(-c2cccnc2)c2c([nH]c1=S)CCCC2,6,0.6,0.3,0,-11,1.0%
Cc1ccc(-c2nnc(SCC#N)n2N)cc1,-10,-0.2,-5.8,-5,-41,0.3%
COc1ccc(CCNC(=O)c2c(O)c3ccccc3[nH]c2=O)cc1,-10,-0.2,-4.0,18,-1,8.4%
CCNc1ccccc(-c2ccc3ccccc3n2)c1=O,-19,2.2,4.5,-10,-4,-0.7%
CC(=O)C1=CCC(c2ccccc2)N(S(=O)(=O)c2ccc(C)cc2)C1 (configuration not stated),.,-0.1,-2.2,12,-9,-0.1%
CCCC(=O)Nc1cccc(-c2cn3c(C)csc3n2)c1,-1,-0.2,.,.,.,1.7%

# Some entries already given, reduced to PINK1 expr mod.
mol,PINK1 expr mod
C=C(CCO)C1=CCN(S(=O)C(C)(C)C)[C@H]1CCO (some centres not stated),-0.8%
OCC1(Cc2ccccc2F)CCCN(CC2CCCCC2)C1 (configuration not stated),5.7%
COc1ccc(/C=N/NC(=O)CCN2CCN(c3ccccc3)CC2)c(OC)c1OC,3.2%
COc1ccc(-c2cc(C(=O)Nc3c(C(=O)c4ccc(C)cc4)oc4ccccc34)no2)cc1,0.8%
CCCn1c(=O)c2ccccc2n2c(SCC(=O)NCc3cccs3)nnc12,1.8%
Cc1ccc(C)c(SCC(=O)Nc2cccnc2Cl)c1,2.3%

# The results go on.
SMILES,TRPML1 inh,TRPML1 ag,D2 agonist,Six1-Eya2 blk,D2 PAM,PINK1 expr mod
O=C(CSc1ncccn1)N/N=C/c1cccc(OC2CSC2)c1,-5,0.2,-4.3,-11,1,-0.4%
CCc1ccc(-c2nc(CN3CCC(C(=O)NCc4ccc(F)cc4)CC3)c(C)o2)cc1,3,2.0,-6.8,10,-42,.
O=C1N/C(=N\N=C\c2ccco2)SC1Cc1ccccc1[N+](=O)[O-] (configuration not stated),2,0.9,-2.6,-10,-9,3.5%
O=C(CCC(=O)N1CCSc2ccccc21)NCc1cccc(Cl)c1,3,0.6,0.7,-3,-3,1.5%
O=C(COc1ccccc1)NCC(=O)NC1CCCCC1,4,-0.4,-2.6,2,-5,-0.5%
Cc1ccc(NC2=C/C(=N\S(=O)(=O)c3cccs3)c3ccccc3C2=O)c(C)c1,31,2.2,3.2,-84*,-6,-2.7%
N#CC1(Nc2ccc([N+](=O)[O-])cc2)CCCC1,-6,1.3,-5.3,23,-14,-3.2%
O=C(CN1CCCC1c1ccc2c(c1)OCCO2)NC(=O)Nc1ccccc1F (configuration not stated),32,0.8,0.3,-7,-21,2.9%
COc1ccc(NC2CCCN(C(=O)c3ccc(C(C)=O)cc3)C2)cc1 (configuration not stated),-5,0.5,-4.6,-5,-8,-0.1%
CC(=O)N1CCCc2cc(S(=O)(=O)NC(C(=O)NCc3ccc(C)cc3)C(C)C)ccc21 (configuration not stated),4,0.1,-2.8,-1,-8,0.4%
CN(C)S(=O)(=O)c1ccc(C(=O)Nc2nc(-c3cccs3)cs2)cc1,6,12,-2.5,-1,0,0.4%
O=C(O)/C=C\C(=O)Nc1ccc(F)c(F)c1F,7,3.2,-0.6,-4,2,-1.1%
CC(=O)c1ccc(NC(=O)COC(=O)CCN2C(=O)c3cccc([N+](=O)[O-])c3C2=O)cc1,7,-0.3,-2.2,0,-10,-1.8%
Nc1nc(Nc2ccccc2)n[nH]1,6,3.1,-5.1,-19,-14,2.7%
CCC(C)(C)NC(=O)C(c1cccc(OC)c1)N(C(=O)c1ccn[nH]1)c1cccc(OC)c1 (configuration not stated),-2,0.3,-2.1,3,-14,1.5%
CC(/C=N/N1CCN(Cc2ccccc2)CC1)=C\c1ccccc1,14,0.8,-3.8,?,-16,?
Clc1ccc2scc(CN3CCCCC3)c2c1,-2,-0.7,-5.1,11,-41,5.8%
COc1ccccc1CNC(=O)C(c1ccccc1)c1ccccc1,-9,3.1,-0.1,12,-3,11%
CN(Cc1ccccc1)Cc1nc2c(c(=O)n(C)c(=O)n2C)n1Cc1ccc(Cl)cc1,5,0.6,-2.2,1,7,-1.8%
COc1cc(/C=C(\CC(=O)O)c2nc3ccccc3s2)cc(OC)c1O,2,-0.5,-1.5,-1,-10,1.9%
CCOC(=O)c1sc(NC(=O)C(CC)OC(=O)c2ccco2)nc1C (configuration not stated),-9,0.1,-1.0,0,-30,3.3%
Fc1cccc(C2NC(=S)NC3=C2N2CCC3CC2)c1 (configuration not stated),3,2.9,-1.3,5,6,1.6%
COC(=O)c1ccc(NC(=O)c2c(NCc3ccc(OC)c(OC)c3)sc3c2CCCC3)cc1,2,-0.3,.,.,.,15%
Cc1cc(C)nc(NS(=O)(=O)c2ccc(Br)cc2)n1,-13,-0.3,-4.4,4,5,5.9%
COc1ccc(NC(=O)Cn2nnc(C(=O)NCc3ccccc3)c2N)c(OC)c1,14,1.6,-5.0,1,-2,2.0%

# Gathered by group: those above containing a cyano group (three)
SMILES,TRPML1 inh,TRPML1 ag,D2 agonist,Six1-Eya2 blk,D2 PAM,PINK1 expr mod
N#Cc1c(-c2cccnc2)c2c([nH]c1=S)CCCC2,6,0.6,0.3,0,-11,1.0%
Cc1ccc(-c2nnc(SCC#N)n2N)cc1,-10,-0.2,-5.8,-5,-41,0.3%
N#CC1(Nc2ccc([N+](=O)[O-])cc2)CCCC1,-6,1.3,-5.3,23,-14,-3.2%

# Further structures:
SMILES,TRPML1 inh,TRPML1 ag,D2 agonist,Six1-Eya2 blk,D2 PAM,PINK1 expr mod
Cc1nc(-c2ccc(C(F)(F)F)cc2)sc1C(=O)NN,13,2.4,0.8,-6,-7,2.9%
COc1ccc(NC(=O)Cn2nnc3ccccc32)c([N+](=O)[O-])c1,19,-1.2,5.2,-2,12,10%
O=C(Nc1ccc(F)cc1F)c1noc2c1CCC2,-2,-0.8,5.4,-5,11,5.0%[38.3 µM]
CCCn1c(N)c(C(=O)CSc2nnc3ccccn23)c(=O)[nH]c1=O,-20,-0.4,-3.6,4,-8,18%
COc1ccccc1/C=C/C1=NC(=C\N(C)C)/C(=O)O1,31,1.4,-5.5,-3,-12,4.9%
Cc1ccc(Cn2c(CN3CC(C)OC(C)C3)nc3c2c(=O)n(C)c(=O)n3C)cc1 (configuration not stated),-12,-0.4,0.7,1,-8,-0.1%
N#Cc1nnn(Cc2ccccc2)c1N,3,0.1,-4.3,0,16,-1.4%
Cc1nc2c3cc(Cl)ccc3n(CCN3CCOCC3)c2s1,-16,-0.6,1.4,1,-10,5.7%
CCOc1cc(/C=C(\C#N)C(=O)Nc2cccc(C(=O)O)c2)cc(Br)c1OC(=O)c1ccc(OC)cc1,11,0.3,0.7,-10,0,3.0%
COc1ccccc1C(=O)N/C(=C\c1cn(C)c2ccccc12)C(=O)N1CCCC1,8,2.0,4.4,-2,-9,2.0%
COC(=O)c1ccc(OC(=O)c2cccs2)cc1,1,3.1,-2.5,-68*,-7,-0.3%
Cc1ccc(CC2CC(=O)N(c3ccc4c(c3)OCCO4)C2=O)cc1 (configuration not stated),-2,2.1,0.3,11,-17,4.4%
O=c1[nH]c(Cc2ccccc2)nc2scc(-c3ccccc3)c12,-8,3.8,1.4,4,-8,30%
CN(CC(=O)Nc1ccc(F)c(F)c1F)C1CCCCC1,-5,-0.7,-4.1,3,-17,3.9%
O=C(Oc1cccc(N2C(=O)C3C4c5ccccc5C(c5ccccc54)C3C2=O)c1)c1ccco1 (configuration not stated),-7,-0.1,1.0,-17,-13,1.5%
Cc1ccc(C(=O)OCC(=O)Nc2cc(C(C)(C)C)no2)c(C)c1,0,0.7,2.0,-4,-1,-2.2%
O=C(NCCCN1CCCC1)[C@H](CSCc1ccccc1)N1Cc2ccccc2C1=O,23,0.4,-2.5,-5,-12,-1.2%
CC(C)(C)NC(=O)C1Cc2ccccc2CN1C(=O)Nc1cccc(Cl)c1 (configuration not stated),4,1.1,-1.9,12,2,-0.8%
CCOC(=O)c1ccc(N2C(=O)c3n[nH]c(-c4ccco4)c3C2c2ccc(C)cc2)cc1 (configuration not stated),16,1.4,.,.,.,1.7%
Cn1c(CC2Sc3ccccc3NC2=O)nnc1SCC(=O)c1ccc(Cl)cc1 (configuration not stated),-8,0.1,-5.3,0,-25,7.2%
Nc1c(C(=O)Nc2ccc3c(c2)OCCO3)nnn1Cc1cccc(Br)c1,51,-0.2,-0.2,-15,27,5.6%
O=C(CN1CCN(c2ccccn2)CC1)N1c2ccccc2CCc2ccccc21,10,0.3,-1.9,-2,4,-2.7%
